Screens (PubChem BioAssay)
Vaccinia Venus: vaccinia inhibition (Venus reporter); 330,000 tested, 0.46% active; Vaccinia virus Venus reporter expression, fluorescence; AID 720580; Potency, µM (titrated, usually from 36.5 µM), inactives show at the top dose activity change, negative = inhibition, hits mostly inhibitors; active means well fitted inhibition curve with a large enough effect; inconclusive means small, poorly fitted or top-dose-only effect; inactive means no such curve, though single readings can be large or run the other way; tested in A549 cells; also: nearly all actives have a fitted effect of over 30% in size; inactives centre near -10
VACV mCherry inh: inhibitors of vaccinia virus infection (mCherry reporter signal). Potency, µM (doses to about 36.5 µM), without a hit: at the top dose activity change, negative = inhibition, most hits filed as inhibitors. Vaccinia virus mCherry reporter infection, fluorescence; about a quarter of the inactives have no number. 310,000 tested, 0.63% active. AID 720579; active = well fitted inhibition curve with a large enough effect; inconclusive = small, poorly fitted or top-dose-only effect; inactive = no such curve, though single readings can be large or run the other way; tested in A549 cells; also: nearly all actives have a fitted effect of over 35% in size; inactives centre near -10
Starred values were filed as active, the others as inactive; i = inactive; ? = inconclusive; . = not tested or not shown; & = joins results of further samples; [ ] = another dose, or the depositor's remark. % is scaled to controls: 0 for no effect and ±100 for the full control effect; potency is read from the fitted curve at half-maximal effect.

SMILES	Vaccinia Venus	VACV mCherry inh
Cc1ccc(NC(=O)CN(C)C(C)C(=O)Nc2ccc(S(=O)(=O)N3CCCC3)cc2)cc1 (centres undefined)	-21%	-24%
CN(C)CC1CCCCC1=O (centres undefined)	-5%[7.34 µM]	i[7.34 µM]
CCCS(=O)(=O)N1CC(=O)N(c2cccc(Cl)c2)C(C)(C(=O)NC2CCCCC2)C1 (centres undefined)	-9%	-4%
CC(=O)Nc1ccc(C(=O)OCC(=O)NCCC2=CCCCC2)cc1	-14%	-15%
CCCCNC(=O)C1(C)CCCCN1C(=O)c1ccc(OC)c(C(F)(F)F)c1 (centres undefined)	-9%	i
O=S(=O)(c1ccc(Oc2ccc(Br)cc2)cc1)N1CCOCC1	?	.
COc1ccc(C(=O)NCCc2cnc[nH]2)cc1OC	-20%	i
COC(=O)C[C@H]1CC[C@H](NC(=O)Nc2ccccc2OC)[C@@H](CO)O1	-11%	-18%
O=c1[nH]c2ccc(N=Cc3c(O)ccc4cc(Br)ccc34)cc2[nH]1	0%	-10%
O=C(Nc1cccc(-c2ccccc2)c1)N1CCN(C(=O)Nc2cccc(-c3ccccc3)c2)CC1	-9%	-9%
NS(=O)(=O)c1ccc(NC(=O)COC(=O)C2(c3ccc(F)cc3)CCCC2)cc1	-27%	?
Cc1ccccc1S(=O)(=O)Cc1ccc(C(=O)NCCN(Cc2ccccc2)C(C)C)o1	-14%	-1%
CC(C)c1ccc(NC(=O)CCS(=O)(=O)c2cccc3nonc23)cc1	-14%&-15%	-19%
Cc1ccc(-c2cn3cccnc3n2)cc1NC(=O)c1c(-c2ccccc2Cl)noc1C	-30%	2%
CCCCOC(=O)C1C2C=C[C@]3(CN(CCCOC)C(=O)[C@H]13)O2 (some centres undefined)	-6%	.
CC(C)C(=O)N1CCN(c2cc(N3CCN(C)CC3)c(F)cc2[N+](=O)[O-])CC1	3%	-18%
Cn1c(SCC(=O)N2CCCC2)nnc1-c1ccc(S(=O)(=O)N2CCCC2)cc1	-6%	-12%
Cc1ccc(C)c(N2CCN(C(=O)CCc3c(C)nc4c(c3C)c(=O)n(C)c(=O)n4C)CC2)c1	-9%	-5%
COc1ccc(NCc2cc(=O)[nH]c3ccccc23)cc1	?	-28%
CCOC(=O)C1CCN(CC(O)COc2ccc(C(C)(C)C)cc2)CC1 (centres undefined)	-9%	.
NC(=S)N/N=C/c1ccc(C(F)(F)F)cc1	?	1.8µM*
CN(C)CC[n+]1ccc(C(=O)c2ccccc2)cc1	-5%	-11%
CCCn1c2ccccc2c2cnn(CC(=O)N3CCN(c4ccccc4)CC3)c(=O)c21	-13%	-7%
COc1ccc(CCN(C)C(=O)CCCN2C(=O)c3cccc4cccc(c34)C2=O)cc1OC	-25%	-10%
CC(C)Oc1ccc(/C=C/C(=O)NCC2COc3ccccc3O2)cc1 (centres undefined)	-14%	-10%
CCCc1cc(=O)oc2cc(OCC(=O)NCCCN3CCOCC3)ccc12	-8%	i
Cc1ccc(C(=O)NCc2ccccn2)o1	6%	i
CCOC(=O)N1CCN(C(=O)CCSc2ccc(C)cc2)CC1	-24%	-12%
O=C(COC(=O)c1ccccc1Br)Nc1ccccc1F	-6%	i
Cc1nc2ccccc2c(=O)n1NC(=O)c1cncc(Br)c1	2%	-14%
O=C(O)c1cnc(-c2ccccc2)nc1C(F)(F)F	-12%	-26%
COc1cccc(CNc2nc3ccc(NC(C)=O)cc3s2)c1	-12%	-5%
CCOc1ccc(CC2S/C(=N/N=C/c3ccco3)NC2=O)cc1 (centres undefined)	-8%	i
CC1CCCCN1C(=O)CSc1nc(-c2ccccc2)cc(=O)[nH]1 (centres undefined)	-14%	-3%
Cc1cccc(C)c1NC(=O)CSc1nnc(-c2cccnc2)o1	5%	3%
CCC(=O)N1CCN(c2ccc(NC(=S)NC(=O)c3cccc([N+](=O)[O-])c3)cc2)CC1	-18%	.
Cc1ccc(NC(=S)NCCc2ccc(S(N)(=O)=O)cc2)cc1C	-9%	-9%
CC1(C)CC(NC(=O)C23CCC(C)(C2Br)C3(C)C)CC(C)(C)N1 (centres undefined)	-14%	-4%
O=C(NNC(=O)c1csc(-c2cnccc2C(F)(F)F)n1)c1ccc(C(F)(F)F)cc1	-11%	i
COc1ccc(C(CC(=O)Nc2ccc(C)cn2)N2Cc3ccccc3C2=O)cc1OC (centres undefined)	-4%	-10%
COc1ccc(S(=O)(=O)N2CCOC2CNC(=O)C(=O)NCCN2CCOCC2)cc1C (centres undefined)	-14%	-5%
O=C(Nc1cccc(S(=O)(=O)C(F)(F)F)c1)[C@@H]1O[C@H](CO)[C@@H](O)[C@H]1O	-4%	i
NC(=O)CSc1nnc(NC(=O)c2ccc(S(=O)(=O)N3CCCCC3)cc2)s1	-7%	-4%
CCN(CC)CCCN1C(=O)C(O)=C(C(=O)c2ccco2)C1c1ccc(OC(C)C)cc1 (centres undefined)	-5%	-12%
Cc1ccc(S(=O)(=O)NC(C)c2ccccc2)cc1[N+](=O)[O-] (centres undefined)	-10%	?
N#C/C(=C(/O)CCl)c1nc2ccccc2[nH]1	?	?
O=C(Cc1ccc2c(c1)OCCO2)N1CCN(S(=O)(=O)c2cccs2)CC1	-7%	-6%
Cc1ccc(N2C(=O)CS(=O)(=O)CC2=O)cc1	-4%	i
CC(C)c1ccc(NC(=O)C2CCN(S(=O)(=O)c3ccc(Br)s3)CC2)cc1	?	?
COc1ccc(-n2c(-c3ccccc3[N+](=O)[O-])nc3ccccc3c2=O)cc1	-12%	-2%

3 of the compounds above, as labelled records:
SMILES: COc1ccc(-n2c(-c3ccccc3[N+](=O)[O-])nc3ccccc3c2=O)cc1
  Vaccinia Venus: -12%; VACV mCherry inh: -2%
SMILES: CCC(=O)N1CCN(c2ccc(NC(=S)NC(=O)c3cccc([N+](=O)[O-])c3)cc2)CC1
  Vaccinia Venus: -18%; VACV mCherry inh: .
SMILES: Cc1ccc(NC(=S)NCCc2ccc(S(N)(=O)=O)cc2)cc1C
  Vaccinia Venus: -9%; VACV mCherry inh: -9%

(more compounds)
SMILES	Vaccinia Venus	VACV mCherry inh
COc1cc(OC)cc(-c2c(Sc3ccccc3)c3cc(-c4ccc(OC)c(OC)c4)ccc3n2C)c1	13%	15%
Cc1cccc(C(C)Nc2ccc([N+](=O)[O-])cn2)c1 (centres undefined)	-28%	-27%
O=C(COc1ccc(Cl)cc1Cl)N1CCCC1	-9%	-11%
Cc1c(N)ccc(-n2nc3ccccc3n2)c1C	-7%	?
O=C(NCCF)[C@H]1C[C@@H]1[C@H](NP(=O)(c1ccccc1)c1ccccc1)c1ccccc1	-11%	i
CCCCOc1ccc(NC(=O)C(=O)NCCCn2ccnc2)cc1	-4%	5%
CCOC(=O)C[C@@H]1OC[C@H](Cc2ccccc2)N1S(=O)(=O)c1ccc(C)cc1	-17%	?
COC(=O)c1ccc(NC(=O)CN2CCN(c3cccc(Cl)c3)CC2)cc1	-9%	.
CC1CC1c1ccc(/C=C(\C#N)C(=O)Nc2ccccc2Cl)o1 (centres undefined)	-13%	-3%
COc1ccccc1NS(=O)(=O)c1ccc(NC(=O)N2CCCCC2)cc1	0%	-12%
Cc1ccccc1N(C(=O)CNC(=O)c1ccco1)C(C(=O)NC1CCCCC1)c1ccncc1 (centres undefined)	-8%	-4%
COc1cc(N=Nc2cccc(S(N)(=O)=O)c2)c2ccccc2c1N	54%[activator]	?
Cc1cc(C)nc(N2CCC(C(=O)NCc3cccs3)CC2)n1	-4%	-15%
CO[C@H]1[C@H](NC(=O)c2ccsc2)c2ccccc2C12CCN(Cc1cc(Cl)ccc1O)CC2	-18%	-28%
O=C(c1cc(S(=O)(=O)N2CCOCC2)c(Cl)cc1Cl)N1CCCCC1	-15%	-15%
CC1Cc2cc(S(=O)(=O)N3CCN(c4ccccc4F)CC3)ccc2N1C(=O)C1CC1 (centres undefined)	-15%	-18%
CC(C)COc1cccc(C(=O)NC(=S)Nc2cccc(NC(=O)c3ccccc3Cl)c2)c1	1%	-11%
CCc1nn(C(C)C(=O)NCCc2ccc(OC)c(OC)c2)c(=O)c2cc3occc3n12 (centres undefined)	-21%	.
CCCCn1c(C)cc(/C=C(\C#N)C(=O)O)c1C	-6%	i
CC(=O)N1CCc2c(sc3c2c(=O)n(-c2ccccc2C)c(=O)n3CC(=O)c2ccccc2)C1	-7%	-2%
COC(=O)c1ccc(CN(C(=O)N2CCN(C)CC2)S(=O)(=O)c2ccc(C)cc2)cc1	-12%	-6%
COc1ccc(NC(=O)c2cc(-c3sc(NC(=O)c4ccccc4)nc3C)n(CCO)n2)cc1	-13%	-6%
O=C(Nc1cc(C(F)(F)F)cc(C(F)(F)F)c1)Nc1cnn(-c2ccc([N+](=O)[O-])cc2)c1C(F)(F)F	-13%	i
CSc1n[nH]c(/N=C/c2oc(O)c3ccccc23)n1	-15%	i
O=C(NCc1cccc(Cl)c1)c1ccc(-n2ccnc2)c2ccoc12	-16%	-4%

The list goes on:
| canonical_smiles | Vaccinia Venus | VACV mCherry inh |
| --- | --- | --- |
| CCc1ccccc1NC(=O)Cn1nnc(C(=O)Nc2ccc(OC)c(OC)c2)c1N | -10% | i |
| CC(=O)Nc1cc(S(=O)(=O)Nc2cccc(C)c2)c(C)cc1C | 7% | . |
| CCOc1ccc(C(=O)CCC(=O)Nc2ccncc2)cc1 | -7% | -5% |
| O=S(=O)(c1ccc(-c2cc(C(F)(F)F)on2)s1)N1CCN(c2cccc(Cl)c2)CC1 | -9% | -18% |
| COc1cc(C(=O)NCC(=O)NNC(=O)CN(C)S(=O)(=O)c2ccc(Cl)cc2)cc(OC)c1OC | -16% | -7% |
| CC1Cc2ccccc2N1C(=O)CSc1nc2c(c(=O)n(C)c(=O)n2C)n1Cc1ccccc1 (centres undefined) | -3% | -13% |
| Cc1cc(C)n(C(C)CNC(=O)c2ccc3c(c2)OCO3)n1 (centres undefined) | 6% | -11% |
| Cc1cccc(N2CCN(S(=O)(=O)c3ccc4c(c3)C(C)(C)C(=O)N4C)CC2)c1C | -15% | -8% |
| Cc1cccc(C)c1NC(=O)C1CCCN1S(=O)(=O)c1ccc2c(c1)n(C)c(=O)c(=O)n2C (centres undefined) | -1% | -5% |
| c1ccc2c(Cn3nnc4ccccc43)cccc2c1 | -10% | i |
| Clc1ccc(-c2nnnn2-c2ccc(Cl)cc2)cc1 | 16% | i |
| CCOc1cc(/C=N/NC(=O)c2nnn(-c3nonc3N)c2C)ccc1OCc1ccc(C)cc1 | ? | i |
| Cc1nc(SCC(=O)Nc2cccnc2Cl)nc(C)c1C | -5% | -15% |
| COC(=O)c1ccccc1NC(=O)c1sc2nc(C)cc(C)c2c1NC(=O)c1ccccc1Cl | -20% | -14% |
| O=S(=O)(c1cc(Cl)cc(Cl)c1O)N1CCC2(CC1)OCCO2 | -11% | -5% |
| CCn1c(C)nc2cc(NS(=O)(=O)c3ccccc3)cc(C(=O)N3C[C@@H](C)O[C@@H](C)C3)c21 | -10% | i |
| Cc1cc(C)cc(NC(=O)CCC(=O)N2Cc3ccccc3Oc3ncccc32)c1 | -1% | -14% |
| CCOC(=O)CNC(=O)CSc1nnc(-c2ccccc2)n1Cc1ccco1 | 0% | . |
| Cc1[nH]c2ccccc2c1SCCNC(=O)c1ccc(F)cc1 | -13% | -2% |
| CCC(Cc1ccccc1)NC(=O)C1CCN(S(=O)(=O)c2c(C)noc2C)CC1 (centres undefined) | -8% | -8% |

Three compounds out of the list, ordered by molecular weight, ascending:
| canonical_smiles | Vaccinia Venus | VACV mCherry inh |
| --- | --- | --- |
| Cc1[nH]c2ccccc2c1SCCNC(=O)c1ccc(F)cc1 | -13% | -2% |
| O=S(=O)(c1cc(Cl)cc(Cl)c1O)N1CCC2(CC1)OCCO2 | -11% | -5% |
| CCOc1cc(/C=N/NC(=O)c2nnn(-c3nonc3N)c2C)ccc1OCc1ccc(C)cc1 | ? | i |

Later entries.
| canonical_smiles | Vaccinia Venus | VACV mCherry inh |
| --- | --- | --- |
| CCOC(=O)CN(C(=O)c1ccccc1)c1ccccc1C | -7% | -20% |
| Fc1ccc(CNc2nc3ccccc3n3nnnc23)cc1 | 0% | ? |
| O=C(N/C(=C\c1cccnc1)C(=O)N1CCCCC1)c1cccc(Br)c1 | -5% | -10% |
| Cc1ccc(S(=O)(=O)N(C)C)cc1NC(=O)CSc1nncs1 | -8% | i |
| COCc1c(CN)cnc(C)c1N | -20% | -8% |
| CC(=O)OCC(=O)[C@]1(O)C(C)CC2C3CCC4=CC(=O)C=C[C@@]4(C)[C@]3(F)C(O)C[C@@]21C (some centres undefined) | -19% | -4% |
| Nc1nc(Nc2cccc(Cl)c2)nc(NCc2ccco2)c1[N+](=O)[O-] | -12% | -30% |
| CC(NC(=O)/C=C/c1ccco1)c1nc2ccccc2n1Cc1c(Cl)cccc1Cl (centres undefined) | -17% | -23% |
| COc1ccccc1CN1CCNC(=O)C1CC(=O)N(C)Cc1nc(C)cs1 (centres undefined) | -9% | i |
| C=CCC(CC=C)(CNC(=O)C(=O)Nc1cccc(C(F)(F)F)c1)c1ccccc1 | -13% | -16% |
| Cc1cc(C(=O)OCC(=O)N2CC(C)OC(C)C2)ccc1[N+](=O)[O-] (centres undefined) | -2% | i |
| O=C(O)c1ccc2c(=O)n(-c3ccc(F)cc3)c(=S)[nH]c2c1 | -2% | -10% |
| CCCc1nnc(NC(=O)c2ccc([N+](=O)[O-])cc2)s1 | -21% | -20% |
| COCC(=O)Oc1cc(-c2ccc(C)cc2C)c(OC(=O)COC)c(-c2ccc(C)cc2C)c1 | ? | ? |
| CCOC(=O)Cn1nc(C)c(NC(=O)COc2ccccc2[N+](=O)[O-])c1C | -8% | -9% |
| Cc1ccc(N(C(=O)CNC(=O)c2ccco2)C(C(=O)NC2CCCCC2)c2cccnc2)cc1C (centres undefined) | 1% | -8% |
